Ecoli growth: E. coli growth inhibition, primary screen, OD600; Escherichia coli growth, 23 h; hits give low values; OD600 absorbance (concentration not given with the values); 330,000 tested, 0.21% active; AID 1053175, 2014;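 active means OD600 absorbance below the run mean of sample wells minus 3.6 SD, in any replicate, cut at about 0.56 in these data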;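 further: stock transfer was 300 nL into about 60 µL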
HNF4A DNA FP: change in binding of human HNF4A to DNA, primary screen, biochemical, fluorescence polarization, FITC-DNA | Hepatocyte nuclear factor 4-alpha (Homo sapiens), P41235 | 1 h | activity change, % at 10 µM | 360,000 tested, 0.3% active | AID 1224865, 2016; in the data active means activity change above about 30%, passing the limit was not always enough;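 further: controls were the assay level and a saturating level of protein; the project sought stronger binding though the title names inhibitors; some compounds called inactive have numbers as strong as hits; positive values seem to mean higher polarization but the record does not say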
FGF22 binding: binders of human FGF22 protein, primary screen, FGF22 synaptogenesis inhibitor project, biophysical, thermal shift, single point; 340,000 tested, 1.5% active; calls only at 9.99 µM; recombinant FGF22 thermal shift, SYPRO orange fluorescence; percent of sucrose octasulfate shift, DMSO zero; AID 651658, 2012;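 active means melting point raised past a set limit in the mean and every replicate; three in four hits are not shown here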
UCH37 DUB inh: inhibitors of human UCH37 deubiquitinase, primary screen, biochemical, Ub-AMC cleavage, fluorescence; 330,000 tested, 0.33% active; purified proteasome/UCH37; Ubiquitin carboxyl-terminal hydrolase isozyme L5 (Homo sapiens), Q9Y5K5; inhibition, % (concentration not given with the values);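 active means mean of two replicates above 20%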;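 further: 0% = compound-free wells with enzyme and 100% = wells lacking proteasome; stock transfer was 100 nL into about 20 µL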
Target sequence (Q9Y5K5 whole entry, looked up): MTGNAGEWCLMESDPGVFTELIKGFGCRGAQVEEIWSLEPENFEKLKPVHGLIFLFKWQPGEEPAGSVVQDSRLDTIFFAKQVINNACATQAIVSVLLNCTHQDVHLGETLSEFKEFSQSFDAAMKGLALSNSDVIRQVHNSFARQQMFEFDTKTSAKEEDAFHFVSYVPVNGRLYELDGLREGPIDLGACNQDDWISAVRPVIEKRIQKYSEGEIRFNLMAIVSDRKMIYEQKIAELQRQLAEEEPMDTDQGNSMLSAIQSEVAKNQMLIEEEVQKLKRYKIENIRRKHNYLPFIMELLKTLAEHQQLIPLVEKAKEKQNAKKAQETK
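Signal – fluorescence, ex 355 nm, em 460 nm · System – Proteasome-bound UCH37 · Input – 0.15 nM proteasome as dispensed · Timing – 30 min preincubation with enzyme, 25 min cleavage at room temperature · Read-out basis – percent inhibition of cleavage signal versus uninhibited and no-proteasome wells · Medium – Tris-HCl pH 7.4 with ATP-MgCl2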
ALR inh: inhibitors of human ALR sulfhydryl oxidase, primary screen, biochemical, H2O2 detection, HRP-luminol luminescence, single point; 290,000 tested, 3.8% active; FAD-linked sulfhydryl oxidase ALR (Homo sapiens), P55789; AID 485317, 2010; inhibition, % (test concentration not listed); purified ALR, DTT oxidation;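 active means mean and each replicate at 75% or more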;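 further: stock transfer was 7.5 nL into about 7.5 µL; 0% = neutral wells and 100% = wells with inactivated enzyme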
Target sequence (P55789 whole entry, looked up): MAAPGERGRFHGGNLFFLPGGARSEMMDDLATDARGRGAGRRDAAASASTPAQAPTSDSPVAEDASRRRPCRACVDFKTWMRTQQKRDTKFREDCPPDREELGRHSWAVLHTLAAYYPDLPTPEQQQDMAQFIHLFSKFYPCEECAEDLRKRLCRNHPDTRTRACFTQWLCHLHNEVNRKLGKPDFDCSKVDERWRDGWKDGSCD
B2AR ag: beta2AR agonists driving receptor internalization, primary screen, cell-based, FAP fluorogen, flow cytometry. Beta-2 adrenergic receptor (Homo sapiens), P07550. Am2.2-beta2AR cells; reference of the scale not given here. response, % (test concentration not listed). 340,000 tested, 0.43% active. AID 504454, 2011;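 active means response above a set limit, near 3 SD of response in nonfluorescent compounds, cut at about 42% in these data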;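 further: stock transfer was 100 nL into about 11 µL; a reference agonist was the positive control; negative values mostly stem from fluorescent compounds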
Target sequence (P07550 whole entry, looked up): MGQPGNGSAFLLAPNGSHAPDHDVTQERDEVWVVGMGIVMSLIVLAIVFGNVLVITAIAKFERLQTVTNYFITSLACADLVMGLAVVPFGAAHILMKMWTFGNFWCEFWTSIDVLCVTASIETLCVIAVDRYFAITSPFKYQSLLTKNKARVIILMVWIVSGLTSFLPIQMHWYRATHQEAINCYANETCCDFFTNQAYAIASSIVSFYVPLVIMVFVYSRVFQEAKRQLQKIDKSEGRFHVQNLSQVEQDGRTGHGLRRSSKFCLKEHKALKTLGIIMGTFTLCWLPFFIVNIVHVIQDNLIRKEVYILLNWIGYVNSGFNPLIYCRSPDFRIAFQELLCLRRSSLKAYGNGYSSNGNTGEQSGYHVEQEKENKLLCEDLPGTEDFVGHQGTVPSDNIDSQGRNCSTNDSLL
rRNA inh HTS: reduced GFP signal of wild-type E. coli, primary screen, bacterial rRNA inhibitor project, GFP/RFP fluorescence, OD600, single point. E. coli WT GFP vs humanized-ribosome RFP mutants, 24 h; hits give low values; DMSO median 0, no signal -100. GFP signal change (wild-type ribosome), % (test concentration not listed). 350,000 tested, 1.6% active;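 active means significant combined selectivity score with lowered wild-type GFP, culture density cut under 30%, mutant RFP and density less affected; inactive means any of these conditions unmet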; further: one replicate is shown; some compounds called inactive have numbers as strong as hits
rRNA inh HTS OD600: recorded beside rRNA inh HTS, whose call it bears; OD600 change, %; measured here: OD600 growth;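 optical density of the mix in the first replicate; 0 = DMSO median and -100 = no signal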
rRNA inh HTS RFP: further read-out of rRNA inh HTS, marked with its call; RFP signal change, %; measured here: RFP humanized mutant strains;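 first replicate; 0 = DMSO median and -100 = no signal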
* = called active by the depositor; i = inactive; nt = no result given; & = joins results of further samples.

item | compound | Ecoli growth | rRNA inh HTS RFP | HNF4A DNA FP | UCH37 DUB inh | B2AR ag | rRNA inh HTS | ALR inh | FGF22 binding | rRNA inh HTS OD600
1 | CC(=O)Nc1ccc(NC(=O)C2CCCN(S(=O)(=O)c3ccc(-n4cnnn4)cc3)C2)cc1 (stereo unspecified) | nt | -1.9 | -0.8 | nt | 8 | -2 | 3 | nt | -7
2 | C/C=C/c1ccc(OCC(=O)OCC)c(OC)c1 | 0.68 | -1.0 | 0.3 | -0.9 | -4 | 6 | -2 | i | 4
3 | COc1cc(OC)cc(C(=O)NNC(=O)c2ccc(-n3cncn3)c([N+](=O)[O-])c2)c1 | 0.68 | -0.8 | -1.6 | 3.8 | -9 | -4 | -63 | i | -2
4 | CC(C)(CC1(C)NC(=O)NC1=O)OCc1ccccc1 (stereo unspecified) | 0.7 | 3.1 | 5.4 | -1.6 | -5 | 17 | nt | i | 12
5 | CCCCn1c(N)c(N(CCOC)C(=O)C2CCN(S(=O)(=O)c3ccccc3)CC2)c(=O)[nH]c1=O | 0.71 | 0.6 | 4.5 | -4.1 | -2 | 10 | -3 | i | 14
6 | CCCCNc1nc2ccccc2nc1Cl | 0.71 | nt | -0.8 | -3.1 | -2 | nt | -8 | nt | nt
7 | CN(C1CCS(=O)(=O)C1)S(=O)(=O)c1ccc2ccccc2c1 (stereo unspecified) | 0.69 | -1.5 | 0.4 | 5.4 | -2 | 6 | -1 | nt | 7
8 | O=c1ccc(-c2ccccc2)n[nH]1 | 0.66 | -10 | 1.0 | 1.6 | -4 | 8 | -8 | i | 9
9 | COc1ccccc1NC(=O)C1=C(C)Nc2nc(-c3ccc(N(C)C)cc3)nn2C1c1ccncc1 (stereo unspecified) | 0.73 | nt | 0.5 | 3.2 | -3 | nt | 12 | nt | nt
10 | COC(=O)c1ccc(CSc2nc(C)nc3sc(C)c(C)c23)o1 | 0.72 | nt | -0.9 | 3.3 | -1 | nt | 6 | nt | nt
11 | O=C(CSc1ccccc1)NC1=NCCS1 | 0.69 | -1.3 | -1.7 | -0.9 | -7 | 4 | -8 | i | 7
12 | CCOC(=O)C1(C)CCCN1C(=O)c1cccc(OC)c1 (stereo unspecified) | nt | -2.6 | 1.4 | nt | nt | 3 | nt | i | 5
13 | CN(C)S(=O)(=O)c1cccc(NC(=O)COC(=O)CCOc2ccccc2)c1 | 0.69 | 1.1 | 3.1 | 5.2 | -2 | -4 | nt | i | -20
14 | CCOC(=O)c1cn(CC(=O)Nc2ccc(CC)cc2)nn1 | 0.66 | nt | 2.2 | 4.0 | 1 | nt | -11 | nt | nt
15 | CN1CCN(CCNC(=O)c2cc3c(=O)n(C)c4ccccc4c3n2C)CC1 | 0.67 | 0.3 | -1.1 | -3.1 | 6 | -7 | nt | nt | 0
16 | CCOCCCn1c(=N)c(S(=O)(=O)c2ccc(C)cc2)cc2c(=O)n3cc(C)ccc3nc21 | 0.68 | 0.8 | -16 | -100 | 1 | 9 | 19 | i | 5
17 | Cc1c(N2C(=O)/C(=C/c3ccc(N(C)C)cc3)N(C)C2=S)c(=O)n(-c2ccccc2)n1C | 0.62 | 32 | 55* | 19 | 10 | -40 | nt | i | -9
18 | O=C(NCCc1ccc(F)cc1)Nc1ccccc1 | 0.66 | 0.0 | -1.7 | 4.5 | 3 | 3 | -10 | i | -3
19 | Cc1oc(C(=O)O)cc1COc1ccccc1Cl | 0.67 | nt | 0.6 | -1.2 | 14 | nt | 17 | nt | nt
20 | O=C1CCC(=O)N1c1nc2nc(-c3ccccc3)cc(=O)n2[nH]1 | 0.7 | nt | 0.4 | 0.0 | 43* | nt | 4 | nt | nt
21 | O=S(=O)(NCCc1cccs1)c1ccc(Br)cc1 | 0.65 | -1.0 | -1.8 | 1.0 | 6 | -7 | 1 | i | -28
22 | N#CC(/C(=N/S(=O)(=O)c1cccs1)c1ccccc1)c1nc2ccccc2[nH]1 (stereo unspecified) | nt | nt | 4.5 | nt | -9 | nt | 3 | nt | nt
23 | COc1ccc2[nH]cc(CCN=C3SCC(=O)N3C)c2c1 | 0.71 | nt | -2.6 | 5.7 | 0 | nt | 5 | nt | nt
24 | CCOC(=O)Cn1nnnc1CN(CCc1ccccc1)Cc1cc2cc(CC)ccc2[nH]c1=O | 0.7 | nt | -0.4 | -2.3 | 7 | nt | 4 | nt | nt
25 | CCOc1ccc(C(=O)NC(=S)Nc2ccccc2N2CCCCC2)cc1[N+](=O)[O-] | 0.72 | nt | 0.8 | 3.9 | 0 | nt | -5 | nt | nt
26 | O=C(NC1=C(Nc2ccc(F)cc2)C(=O)c2ccccc2C1=O)c1ccc(Cl)cc1 | 0.66 | nt | 0.4 | 21* | 1 | nt | -59 | nt | nt
27 | O=C(COc1cc(F)ccc1[N+](=O)[O-])NCCCc1ccccc1 | 0.71 | -2.1* | 1.6 | 5.5 | 0 | -27* | -24 | i | 0.6*
28 | Nc1cc(OCC(F)(F)F)cc([N+](=O)[O-])c1 | 0.6 | nt | 0.1 | 2.2 | 4 | nt | 3 | nt | nt
29 | O=C(Nc1ccn(Cc2ccccc2)n1)c1cccc(F)c1 | 0.63 | -2.3 | -0.8 | 0.2 | 3 | -2 | nt | i | -1
30 | COc1cc(/C=N/NC(N)=S)ccc1OCC(=O)Nc1ccc(C)cc1 | nt | nt | 0.8 | nt | 4 | nt | -5 | nt | nt

Filtered by structure, the compounds so far with an aryl thioether with sulfur outside any ring (2)
item | compound | Ecoli growth | rRNA inh HTS RFP | HNF4A DNA FP | UCH37 DUB inh | B2AR ag | rRNA inh HTS | ALR inh | FGF22 binding | rRNA inh HTS OD600
10 | COC(=O)c1ccc(CSc2nc(C)nc3sc(C)c(C)c23)o1 | 0.72 | nt | -0.9 | 3.3 | -1 | nt | 6 | nt | nt
11 | O=C(CSc1ccccc1)NC1=NCCS1 | 0.69 | -1.3 | -1.7 | -0.9 | -7 | 4 | -8 | i | 7

The results go on.
item | compound | Ecoli growth | rRNA inh HTS RFP | HNF4A DNA FP | UCH37 DUB inh | B2AR ag | rRNA inh HTS | ALR inh | FGF22 binding | rRNA inh HTS OD600
31 | CCOc1ccc(-n2c(-c3ccccc3)c[n+]3c2CCC3)cc1 | 0.68 | 44 | 3.9 | -0.8 | -7 | -34 | -15 | i | -33
32 | NC(=O)C(CCCCN1CCCCC1)(c1ccccc1)c1ccccc1 | 0.67 | -12 | 0.9 | -1.1 | -7 | 8 | nt | i | 15
33 | CCOC(=O)C1=C(O)C(=O)N(Cc2ccc(C(C)(C)C)cc2)CC1 | 0.69 | 5.7 | 0.8 | 3.0 | -5 | -1 | -34 | i | -11
34 | CCOC(=O)c1c(C)n(C)c2ccc(OC(=O)c3ccoc3)cc12 | 0.71 | nt | -1.5 | 2.8 | 0 | nt | 0 | nt | nt
35 | COc1cc2c(cc1OC)C(C(=O)O)C(c1cc(Br)c(O)c(OC)c1)N(C)C2=O (stereo unspecified) | 0.74 | nt | -5.4 | -1.1 | -3 | nt | -1 | nt | nt
36 | COCCNC(=O)c1cc2nc3c(c(C(F)(F)F)n2n1)CCc1ccccc1-3 | 0.71 | -1.7 | -2.0 | -6.8 | -3 | 3 | -3 | nt | 13
37 | O=C(O)CSc1sc(=S)sc1SCC(=O)O | 0.67 | nt | -0.7 | 8.1 | 6 | nt | -3 | nt | nt
38 | CS(=O)(=O)N1CCC(C(=O)Nc2cc(Cl)c(Cl)cc2Cl)CC1 | 0.73 | 2.5 | 6.9 | 3.3 | 0 | -3 | -1 | i | 0
39 | CCCCn1c(N)c(N(CCOC)C(=O)c2ccc(N(C)S(=O)(=O)c3ccc(C)cc3)cc2)c(=O)[nH]c1=O | 0.71 | -1.5 | -2.7 | 0.3 | 3 | 2 | -2 | i | 3
40 | CCN(CC)c1c(C)nc2ccc(C(=O)NCc3ccc4c(c3)OCO4)cn12 | nt | 4.8 | -0.7 | nt | nt | 1 | nt | i | -15
41 | CCN(CC)CCNC(=O)CCc1c(C)nc2c(c(C)nn2-c2ccc(C)c(C)c2)c1C | 0.66 | 2.4 | -1.2 | -56 | 14 | -3 | 0 | i | -3
42 | CC(C)Cc1cc(C(=O)Nc2ccc(F)cc2F)no1 | 0.79 | -1.5 | -0.6 | 5.8 | 18 | 2 | -23 | i | 8
43 | CCOC(=O)c1cnc(SCC(=O)Nc2cccc(OC)c2)nc1N | 0.69 | 5.5 | 1.3 | 3.5 | -4 | -6 | -15 | nt | -8
44 | CN1CCN(C2=C(Cl)C(=O)N(c3cccc(Cl)c3)C2=O)CC1 | 0.72 | nt | -0.6 | 0.1 | 13 | nt | 40 | nt | nt
45 | Cc1nc2ccc(NC(=O)Cc3cccc(F)c3)cc2s1 | 0.69 | -1.1 | 0.9 | 7.3 | 0 | 7 | -1 | i | 3
46 | COc1ccccc1C(=O)C1CCCN(C(=O)c2cccc(Cn3cccn3)c2)C1 (stereo unspecified) | 0.72 | -0.3 | 3.5 | 1.0 | 4 | -1 | 3 | i | -3
47 | COc1ccc(N/C=C2\CCOC2=O)cc1 | 0.67 | nt | 0.2 | 9.8 | 2 | nt | 42 | nt | nt
48 | CCC1Oc2ccccc2N(CC(=O)NC2CCCCC2C)C1=O (stereo unspecified) | 0.65 | 1.1 | 2.4 | 2.2 | 5 | 1 | -1 | i | 12
49 | CCc1c(C)[nH]n(CCC#N)c1=O | 0.7 | nt | 0.4 | -0.4 | -8 | nt | -1 | nt | nt
50 | Cc1oc2ccc(O)cc2c1C(=O)c1ccc(F)cc1 | 0.67 | 1.6 | 5.1 | 2.9 | -8 | 0 | 36 | i | 7
51 | Cc1cc(C)n(CCCO)c(=O)c1C#N | 0.67 | nt | 0.9 | -2.2 | 0 | nt | -10 | nt | nt
52 | COc1ccccc1N1CCN(C(=O)NCc2ccc(Cl)cc2)CC1 | 0.7 | -1.5 | 1.7 | 2.4 | 6 | -24 | 2 | i | -24
53 | Cc1ccc2c(CC(=O)OCc3csc(C)n3)coc2c1 | 0.69 | nt | -2.1 | 2.4 | 14 | nt | 0 | nt | nt
54 | O=C(CSc1nnc(-c2cccnc2)n1-c1ccc(F)cc1)NCc1ccc2c(c1)OCO2 | 0.69 | nt | 1.2 | 3.6 | -3 | nt | -2 | nt | nt
55 | C[C@@H]1CN([C@H](C)CO)C(=O)c2cc(Br)cnc2O[C@@H]1CN(C)C(=O)Nc1cccc(F)c1 | nt | -0.9&-3.8 | 0.4 | nt | nt | 3&4 | nt | i | 12&10
56 | Cc1ccc(S(=O)(=O)c2c(N)n(-c3ccccc3)c3nc4ccccc4nc23)cc1 | nt | 0.9 | -1.9 | nt | 2 | -7 | -8 | i | -3
57 | O=C(/C=C\Nc1ccc2c(c1)OCO2)c1cccs1 | 0.7 | -3.7 | 6.1 | 1.3 | 7 | -17 | 96* | i | -10
58 | COc1cc(C(=O)COC(=O)C2CC2(Cl)Cl)cc(OC)c1OC (stereo unspecified) | 0.68 | 3.2 | 0.7 | -0.9 | -6 | 21 | -7 | i | 10
59 | Cc1nc(CCN2C(=O)c3ccccc3C2=O)cs1 | 0.66 | nt | -3.2 | 2.6 | -6 | nt | -9 | nt | nt

These rows are one share of the data; the hit share may differ from the screen's.
